Six1-Eya2 inh = inhibitors of human Six1/Eya2 interaction; AlphaScreen GST-Six1/His-Eya2 binding, biochemical; active compounds read low; control for the full effect not named in the record; activity change, % (test concentration not listed); 360,000 tested, 0.56% active; in the data active = activity change below about -65%; inconclusive = about -30% to -65%; inactive = above about -30%; also: % is scaled to controls: 0 for no effect and ±100 for the full control effect
Target sequence (O00167 whole entry, looked up): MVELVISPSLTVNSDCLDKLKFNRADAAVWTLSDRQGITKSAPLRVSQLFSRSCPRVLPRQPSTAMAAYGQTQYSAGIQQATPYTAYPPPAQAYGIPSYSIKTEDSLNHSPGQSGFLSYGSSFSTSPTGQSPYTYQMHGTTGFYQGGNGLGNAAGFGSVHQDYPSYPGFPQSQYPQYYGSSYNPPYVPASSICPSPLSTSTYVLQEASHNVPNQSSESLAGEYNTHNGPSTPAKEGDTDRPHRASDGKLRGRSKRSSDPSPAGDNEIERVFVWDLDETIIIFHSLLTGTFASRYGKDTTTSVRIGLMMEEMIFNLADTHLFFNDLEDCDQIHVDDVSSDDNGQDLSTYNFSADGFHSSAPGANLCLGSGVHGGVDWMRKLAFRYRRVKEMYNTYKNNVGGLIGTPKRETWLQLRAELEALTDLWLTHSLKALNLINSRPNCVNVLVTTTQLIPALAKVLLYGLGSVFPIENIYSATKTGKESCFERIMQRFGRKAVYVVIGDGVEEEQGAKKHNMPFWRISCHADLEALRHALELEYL
Target sequence (Q15475 whole entry, looked up): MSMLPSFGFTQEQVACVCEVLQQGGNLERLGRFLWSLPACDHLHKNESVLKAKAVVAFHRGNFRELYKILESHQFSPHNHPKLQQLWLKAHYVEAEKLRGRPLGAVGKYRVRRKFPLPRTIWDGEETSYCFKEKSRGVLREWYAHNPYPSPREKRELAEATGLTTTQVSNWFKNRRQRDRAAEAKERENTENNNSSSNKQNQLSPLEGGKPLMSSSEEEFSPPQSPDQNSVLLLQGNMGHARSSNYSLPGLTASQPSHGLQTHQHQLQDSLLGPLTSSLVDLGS
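GST-Six1 + His-Eya2 (5X stock: 250/500 nM); Tris pH 8.0, 300 mM NaCl, 0.05% BSA, 0.02% Tween 20; GSH donor/Ni acceptor beads; 1 h 37 °C dark; AlphaScreen readout.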
TRPV1 PAM = human TRPV1 potentiation. Q8NER1. TRPV1-expressing cells, Fluo-8 calcium influx, capsaicin EC20 potentiation; host cell line not named in the record; control for the full effect not named in the record. potentiation, % at 8.33 µM. 320,000 tested, 0.02% active; active means potentiation above 80%; inconclusive means 30% to 80%; inactive means below 30%; also: 0% is about no effect
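Cells expressing TRPV1 were dye-loaded with Fluo-8 and read kinetically: 10 s baseline, 3 min after compound (agonist portion), then 2 min after EC20 capsaicin (allosteric enhancer portion). Calcium-bound dye fluorescence at 480/520 nm.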
D2 agonist = agonists of human D2 dopamine receptor (beta-arrestin); P14416; activation, % (concentration not given with the values); AID 624465; 360,000 tested, 0.084% active; DiscoveRx PathHunter D2 beta-arrestin, luminescence, 90 min; 100% = 57 uM dopamine signal; in the data active = activation above about 40%; inconclusive = about 15% to 40%; inactive = below about 15%; also: compound concentration not given in the record; the text of the record calls up to 30% inactive
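Agonist mode: compounds alone added to overnight-plated D2 PathHunter cells for 90 min at 37 C, with 57 uM final dopamine (EC100) defining full response. Beta-arrestin recruitment detected by chemiluminescent reagent, read after 1 h at ambient temperature.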
PINK1 modulator = modulators of PINK1 expression; PINK1 immunofluorescence, high-content cytometry, 24 h; Potency, µM (top dose mostly 76.6 µM), without a hit: top-dose activation (PINK1 increase), hits mostly activators; 410,000 tested, 0.2% active; active = well fitted activation curve with a large enough effect; inconclusive = small, poorly fitted or top-dose-only effect; inactive = flat fitted curve, though single readings scatter; cell line not stated here;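 also: potency is read from the fitted curve at half-maximal effect; % of control where 0% means no effect; nearly all actives have a fitted effect of over 65% in size; a mitochondrial uncoupler was the plate control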
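Decision-based qHTS: stable cells, 24 h exposure to five compound concentrations, CCCP as control. Fixed cells stained for PINK1 plus nuclear, mitochondrial and cell markers, cytometer read.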
Sfp PPTase inh = Sfp phosphopantetheinyl transferase inhibition | Biochemical Sfp PPTase activity, qHTS | Potency, µM, inactives show max response, negative = inhibition, actives largely listed as inhibitors | 310,000 tested, 3.5% active | AID 1490; active = well fitted inhibition curve with a large enough effect; inconclusive = small, poorly fitted or top-dose-only effect, or another doubt; inactive = no such curve, though single readings can be large or run the other way;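 also: the enzyme is Sfp with the accession as filed and its product quenches rhodamine fluorescence; potency is read from the fitted curve at half-maximal effect; 0% = enzyme reaction without inhibitor and -100% = no enzyme wells; top concentration of the series not given in the record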
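Compounds were incubated with enzyme (final 15 nM) for 15 min at room temperature before substrate addition started the reaction. Fluorescence at 525 nm excitation, 598 nm emission was recorded immediately and after 30 minutes.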
CtBP-E1A inh = blocks the CtBP interaction with E1A; activity change, % (concentration not given with the values); 340,000 tested, 0.49% active; AID 651724; AlphaScreen GST-E1A/His-CtBP binding, 1536-well; active compounds read low; control for the full effect not named in the record; in the data active means activity change below about -65%; inconclusive means about -30% to -65%; inactive means above about -30%; also: % is scaled to controls: 0 for no effect and ±100 for the full control effect
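Steps: dispense buffer (Tris pH 8.0, NaCl 300 mM, TCEP 1 mM, BSA, Tween 20); add 5X protein mix (GST-E1A, His-CtBP, 125 nM each); pin 23 nL compound; 2 h at 37 °C, dark; add 5X beads (50 ug/mL); 1 h; read.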
D2 potentiator = potentiates the human D2 dopamine receptor allosterically. P14416. DiscoveRx D2 beta-arrestin cells, luminescence, 90 min; 100% = 57 uM dopamine signal. potentiation, % (no concentration beside the values). 360,000 tested, 0.23% active; active = potentiation of 50% or more; inconclusive = 30% to 50%; inactive = 30% or less;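 also: compound concentration not given in the record; tested on top of an EC20 dose of dopamine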
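PathHunter beta-arrestin assay in DiscoveRx D2 cells. Compounds were added with an EC20 of dopamine (50 nM final) for 90 min at 37 deg C. Luminescence was read 1 h after detection reagent, with 57 uM dopamine as the EC100 control.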
Active calls of the source: *; ? = inconclusive; . = no result given; & = joins results of further samples; [ ] = remark or other dose.

item	mol	PINK1 modulator	D2 agonist	Six1-Eya2 inh	TRPV1 PAM	CtBP-E1A inh	D2 potentiator	Sfp PPTase inh
1	Cc1ccc(S(=O)(=O)N2CCCC2CNC(=O)C(=O)Nc2ccc(F)cc2F)cc1 (stereo not given)	1.0%	1.3	-3	-8	3	0	.
2	Oc1ccc(C[C@H]2CNCCN2CC2CCCCC2)cc1	0.8%	-1.0	1	-26	4	-27	.
3	Cc1cc(Nc2ccc(C)c(C)c2)n2ncnc2n1	0.4%	0.2	1	.	-6	-19	.
4	N#Cc1ccccc1NC(=O)c1ccc2c(c1)OCO2	2.6%	-1.7	2	-3	6	-1	20%
5	C[C@@]12C(=O)Nc3ccc(Cl)cc3C(=O)N1[C@H]1c3ccccc3OC[C@@H]1[C@@H]2c1ccccc1	-1.0%	-4.9	-24	4	-24	-14	.
6	Cc1nnc(NC(=O)CN2CCN(Cc3ccccc3)CC2)s1	0.7%	1.1	-4	2	.	-31	-9%
7	CC1(C)CC(=O)c2sc(NC(=O)C(C)(C)C)nc2C1	-0.7%	-1.0	-2	-4	0	0	4%
8	COCCN1CCc2[nH]c(=S)[nH]c(=O)c2C1	3.3%	-6.5	-3	12	12	-17	56µM*
9	Cc1c(NC(=O)/C(=C\c2ccccc2)NC(=O)c2ccccc2)c(=O)n(-c2ccccc2)n1C	-2.0%	-8.1	-4	18	-11	-6	3%
10	O=C(CSCC(=O)OCn1nnc2ccccc2c1=O)Nc1ccc(Cl)cc1	-1.6%	-5.3	18	.	0	-11	-10%

Structures listed so far shown as hits in Sfp PPTase inh:
| nr | structure | PINK1 modulator | D2 agonist | Six1-Eya2 inh | CtBP-E1A inh | D2 potentiator | Sfp PPTase inh |
| --- | --- | --- | --- | --- | --- | --- | --- |
| 8 | COCCN1CCc2[nH]c(=S)[nH]c(=O)c2C1 | 3.3% | -6.5 | -3 | 12 | -17 | 56µM* |

(next part)
item	mol	PINK1 modulator	D2 agonist	Six1-Eya2 inh	TRPV1 PAM	CtBP-E1A inh	D2 potentiator	Sfp PPTase inh
11	Cc1ccc(C(C2=C(O)CC(C)(C)CC2=O)C2C(=O)CC(C)(C)CC2=O)s1 (stereo not given)	1.4%	-2.0	7	17	-2	-3	35µM*
12	COc1cccc2c(SCC(=O)N/N=C/c3ccc(O)cc3O)cc(C)nc12	-1.7%	-1.0	-79*	29	-66*	-1	15%
13	CSCC(=O)Nc1ccc(F)c(Cl)c1	-1.5%	-0.2	1	13	19	-28	13%
14	CCOC(=O)c1c(NC(=O)CN2C(=O)NC(C)(c3ccc(Cl)cc3)C2=O)sc(C(=O)NC)c1C (stereo not given)	2.6%	2.4	3	4	1	2	-4%
15	Cc1sc2ncnc(N3CCC(C(=O)NNC(=O)COc4cccc(C(F)(F)F)c4)CC3)c2c1C	-1.9%	5.9	-26	0	4	14	.
16	Cc1cccc(C(=O)Oc2ccccc2-c2nnco2)c1	-0.4%	-2.3	1	20	-10	-8	2%
17	CC(C)(C)c1cccc(C2(O)C(=O)c3ccccc3C2=O)c1O	4.8%	5.2	0	15	-1	-5	6%
18	OC1(c2ccccc2)CNCCc2ccccc21 (stereo not given)	1.5%	1.7	-2	3	.	-6	-11%
19	COc1cccc(NC(=O)C2CCCN(S(=O)(=O)c3cccc4nonc34)C2)c1 (stereo not given)	-1.5%&13%	1.9	-7	-1	-10	4	9%
20	CC(=O)N1C[C@H]2CON(C)[C@H]2C[C@H]1c1ccc(-c2ccc(C#N)cc2)cc1	-0.1%	-8.0	6	.	3	2	.
21	CC(=O)Nc1ccc(NC(=O)C(C)Sc2nc3nc(C)cc(C)n3n2)cc1 (stereo not given)	0.1%	-2.6	-9	4	3	-10	.
22	O=S(=O)(C/C(=C/CO)S(=O)(=O)c1ccccc1)c1ccccc1	9.0%[38.3 µM]	-4.3	-8	-6	0	-22	-6%
23	O=C(CN(Cc1ccccc1Cl)C(=O)c1csnn1)NCc1ccc(F)cc1	1.5%	-4.3	6	-12	22	-26	-1%
24	C=C(CO)C1Cc2cc(C(C)=O)ccc2O1 (stereo not given)	1.0%	2.2	-23	-13	2	1	8%
25	O=C(COc1cccnc1[N+](=O)[O-])N1CCc2ccccc2C1	1.5%	-1.7	-2	-6	2	-6	6%
26	COc1ccc(/C=C/C(=O)N2CCCC2)cc1OC	-1.0%	3.1	29	1	-18	2	-1%
27	CC1CCN(C(=O)CN(CCc2ccccc2)S(C)(=O)=O)CC1	-1.0%	-1.5	2	3	-1	-4	7%
28	Cc1cnc(C(=O)OCC(=O)Nc2cccc(Cl)c2)cn1	4.8%[38.3 µM]	-2.0	0	-5	-2	0	7%
29	COc1ccc(C2C=C(C34CC5CC(CC(C5)C3)C4)NC(=S)N2)cc1 (stereo not given)	-0.4%	-1.7	-11	13	-13	-2	2%
30	c1ccc(C2(CN3CCNC[C@H]3Cc3cccc4ccccc34)CC2)cc1	-0.6%	-10	0	-9	-1	-62	.
31	COc1ccccc1NC(=S)NCc1cccnc1	2.1%	-1.8	6	17	3	3	-10%
32	c1ccc(N2CCN(Cc3cnc(N4CCOCC4)s3)CC2)cc1	-0.7%	-10	4	3	25	-14	11%
33	CC(C)NC(=O)c1n[nH]c(=O)c2ccccc12	-1.8%	-0.6	2	-1	-1	4	17%
34	O=C(CSc1nc2c(cnn2-c2ccccc2)c(=O)[nH]1)N1CCOCC1	-2.0%	-3.5	0	.	4	-4	-11%
35	CC(=O)c1ccc(N2CCN(C(=S)Nc3ccccc3C(F)(F)F)CC2)cc1	0.8%	-2.0	4	-13	0	-4	?
36	O=C(/C=C/c1cccc(Cl)c1)Nc1ncccn1	1.9%	-2.2	-2	-28	1	-2	13%
37	COC(=O)c1cc(C(=O)OC)cc(N2C(=O)CC(Sc3nc(C)cc(C)n3)C2=O)c1 (stereo not given)	0.0%	-2.6	-19	-4	-18	-4	-15%
38	COc1ccc2sc(-c3ccc(SC)cc3)c(/C=C/c3ccc(OC)c(OC)c3)c2c1	1.0%	-1.7	13	.	19	-8	.
39	CN(C)CCCn1c(SCC(=O)N2c3ccccc3Sc3ccccc32)nc2ccccc2c1=O	-2.7%	-1.5	-9	1	-24	-19	?
40	Cc1ccc(CNS(=O)(=O)c2cc3c(cc2C)N(C)CCO3)cc1	8.9%&2.6%	-1.0	-2	2	-9	-6	9%
41	C[C@@H]1CN([C@@H](C)CO)C(=O)c2cc(C#Cc3ccccc3)cnc2O[C@@H]1CN(C)Cc1ccccn1	1.1%	4.3	24	.	5	5	.
42	O=C(Cc1cccs1)NCc1cccc(Br)c1	-0.8%	-1.5	-21	-15	-23	-13	4%
43	CCNc1nc(NCC)nc(N/N=C(\C)c2ccc(OC)cc2)n1	-0.6%	-5.1	-5	-4	.	-10	10%
44	c1ccc2c(c1)ccc1[nH]c3c(c12)CCCC3	6.9%	5.4	-26	.	-10	18	.
45	COc1ccc(C(=O)N/C(=C\c2ccco2)C(=O)NCCCn2ccnc2)cc1	-2.3%	-3.6	11	-5	5	-8	4%
46	Cc1[nH][nH]c(=O)c1C(c1ccc(-c2ccc(C(=O)O)cc2)o1)c1c(C)[nH][nH]c1=O	-0.7%	-0.7	-2	-7	1	-5	-88%
47	Nc1nc(CN2CCN(c3ccc(F)cc3)CC2)nc(N2CCCc3ccccc32)n1	-6.4%[38.3 µM]	11	-14	14	-15	-9	4%
48	CCS(=O)(=O)N1Cc2ccccc2CC1C(=O)Nc1nc2ccccc2s1 (stereo not given)	4.8%	-2.4	-12	8	-4	-26	-6%
49	CCOc1ccc2nc(NCCNC(=O)Nc3ccccc3)c(C#N)cc2c1	9.1%	8.4	11	7	6	22	-18%
50	CC(C)(C)c1cc(/C=C2\NC(=O)NC2=O)cc(C(C)(C)C)c1O	28%	14	0	-13	1	-2	3%
51	CCOc1cccc2sc(NC(=O)CCS(=O)(=O)c3ccccc3)nc12	-1.2%	-4.2	7	5	-14	-11	-1%
52	COc1ccccc1CN(C)CC(=O)Nc1cccc(S(=O)(=O)N2CCCC2)c1	1.7%	-0.5	-4	.	5	-16	.
53	Oc1ccc(Br)cc1/C=N/Nc1ccccn1	3.6%	-2.9	-77*	9	.	10	5%
54	Cc1cc(NC(=O)CSc2ncnc3sccc23)no1	-0.1%	0.7	6	6	-24	1	-4%
55	COc1cc(OC)cc(C(=O)NNC(=O)Cc2ccc(OC)c(S(=O)(=O)N3CCOCC3)c2)c1	-0.2%	-3.4	2	-1	9	-30	2%
56	Cc1ccc(CCN2C(=O)CCC2(C)C(=O)NC2CCCC2)cc1 (stereo not given)	1.0%	-1.7	16	2	-17	-5	11%
57	Cc1c(Cl)cccc1NC(=O)CCCCCN1C(=O)CCC1=O	1.5%	-3.0	26	-27	0	-15	-12%
58	Fc1ccc(Nc2nc3ccccc3s2)cc1	-0.8%	2.9	-3	10	1	-36	10%
59	CCN(CC)c1ccc(NS(=O)(=O)c2ccc3c(c2)oc(=O)n3C)c(C)c1	-1.8%	0.3	-17	.	?	-5	?
60	N#Cc1c(-c2ccc(Cl)cc2)ccn2nc(C3CCCCC3)nc12	14%	1.4	0	-1	-1	10	2%

Continued:
item	mol	PINK1 modulator	D2 agonist	Six1-Eya2 inh	TRPV1 PAM	CtBP-E1A inh	D2 potentiator	Sfp PPTase inh
61	Cc1ccccc1C(=O)NC1CCN(CC(=O)Nc2nccs2)CC1	-1.1%[38.3 µM]	-0.3	-3	6	0	-13	-30%
62	Cc1cc(CN(C)C(=O)c2ccc3nc(Cc4ccccc4F)oc3c2)n[nH]1	-2.1%	0.3	5	8	10	8	12%
63	CSCC[C@H](NC(=O)OC(C)(C)C)C(=O)N/N=C/c1cccc2cccnc12	-0.3%	-5.4	?	14	-75*	-6	9%
64	CCCc1cc(=O)oc2cc(OCc3cc(OC)c(OC)c(OC)c3)c(Cl)cc12	4.3%	-0.5	3	3	-7	-11	6%
65	CC(NC(=O)c1cnc2ccccc2n1)c1ccccc1 (stereo not given)	2.7%	2.8	2	0	-2	-1	5%
66	C/C=C/c1ccc(OCC(=O)Nc2cc(Cl)ccc2-n2cncn2)c(OC)c1	0.9%	-4.0	-15	-11	10	-2	.
67	Oc1ccc(Br)cc1CNc1cnc2ccccc2c1	3.9%	4.1	-6	17	.	-15	10%
68	CN(CCOc1ccccc1)S(=O)(=O)c1ccccc1C#N	2.5%	-1.3	10	-6	.	-5	.
69	Clc1ccc(-c2cc(COc3ccc4ccccc4c3)no2)cc1	2.4%	-2.3	0	4	6	-7	-2%
70	O=C(c1ccc(O)c(Br)c1)c1cc(Br)ccc1O	?	-0.5	-14	.	-5	-9	.
71	CCCCOCCCNC(=O)Cc1ccccc1OC	.	-1.3	7	-1	8	-3	2%
